# Source: PubChem BioAssay
# rRNA inh HTS: inhibitors of bacterial rRNA selective over humanized ribosomes. AID 720706. actives 1.6% (n = 350,000). E. coli WT GFP vs humanized-ribosome RFP mutants, fluorescence, 24 h; hits give low values; DMSO median 0, no signal -100. GFP signal change (wild-type ribosome), % (test concentration not listed);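 active = significant combined selectivity score with lowered wild-type GFP, culture density cut under 30%, mutant RFP and density less affected; inactive = any of these conditions unmet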; note: one replicate is shown; some compounds called inactive have numbers as strong as hits
# rRNA inh HTS OD600: second read-out of rRNA inh HTS, no call of its own (marks repeat the call); OD600 change, %; measured here: OD600 growth;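 optical density of the mix in the first replicate; 0 = DMSO median and -100 = no signal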
# rRNA inh HTS RFP: also measured in rRNA inh HTS; calls as there; RFP signal change, %; measured here: RFP humanized mutant strains;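 first replicate; 0 = DMSO median and -100 = no signal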
# Numbers without * were called inactive. Only part of the results is shown; rates above refer to the full screens.
SMILES,rRNA inh HTS,rRNA inh HTS OD600,rRNA inh HTS RFP
C[C@@H]1CN([C@H](C)CO)C(=O)c2cc(C3=CCCCC3)cnc2O[C@@H]1CN(C)S(C)(=O)=O,8,12,-3.1
COCC(=O)N1[C@@H](CO)[C@@H](c2ccccc2)C12CN(Cc1cccc(OC)c1)C2,3,5,-0.4
C[C@H](CO)N1C[C@H](C)[C@H](CN(C)C(=O)Nc2ccc3c(c2)OCO3)OCc2cn(nn2)CCCC1=O,0,-5,0.3
C/C=C/c1ccc([C@@H]2[C@@H](CNC(=O)c3ccccc3)N(C(C)=O)[C@H]2CO)cc1,-4,-8,4.3
COc1ccc(NC(=O)N(C)C[C@@H]2Oc3c(NC(=O)Nc4ccc(C(F)(F)F)cc4)cccc3C(=O)N([C@H](C)CO)C[C@H]2C)cc1,-3,0,1.8
CC(C)NC(=O)Nc1cccc2c1O[C@H](CN(C)C(=O)NC(C)C)[C@H](C)CN(C)C2=O,3,-3,-1.3
O=C1N[C@@H](Cc2ccccc2)COCc2cnnn2CC[C@@H]1Cc1cccc(F)c1,1,0,-5.5
COc1ccc2c3c(n(C)c2c1)[C@@H](CO)N(C(=O)c1cccc(F)c1)CC31CCN(CC2CC2)CC1,1,1,-2.7
CC(=O)NC[C@H]1[C@H](c2ccc(-c3ccccc3)cc2)[C@@H](CO)N1C(=O)C1CCC1,-4,-4,2.3
C[C@@H]1CCCCO[C@@H](CN(C)C(=O)Nc2ccccc2)[C@H](C)CN([C@H](C)CO)C(=O)c2cc(N(C)C)ccc2O1,-4,-6,-0.3
CC(C)CC#Cc1cnc2c(c1)C(=O)N([C@H](C)CO)C[C@@H](C)[C@H](CN(C)C(=O)c1cccc(F)c1)O2,-1,1,-0.5
CC(C)CC#Cc1ccc([C@H]2[C@@H](CO)N3C(=O)CN(S(C)(=O)=O)C[C@H]23)cc1,5,7,-2.4
C[C@H](CO)N1C[C@H](C)[C@H](CN(C)Cc2ccc(C(=O)O)cc2)Oc2ccc(N(C)C)cc2C1=O,2,6,-1.6
CCS(=O)(=O)N1CC(=O)N2[C@H](CO)[C@@H](c3ccc(C#Cc4ccc(F)cc4)cc3)[C@@H]2C1,-59,-70,-11
C[C@@H]1CN([C@@H](C)CO)C(=O)CCCn2cc(nn2)CO[C@@H]1CN(C)Cc1cccnc1,3,1,-0.8

# Single records (already shown).
# C[C@H](CO)N1C[C@H](C)[C@H](CN(C)C(=O)Nc2ccc3c(c2)OCO3)OCc2cn(nn2)CCCC1=O as listed: rRNA inh HTS = 0; rRNA inh HTS OD600 = -5; rRNA inh HTS RFP = 0.3
# CC(C)CC#Cc1cnc2c(c1)C(=O)N([C@H](C)CO)C[C@@H](C)[C@H](CN(C)C(=O)c1cccc(F)c1)O2 as listed: rRNA inh HTS = -1; rRNA inh HTS OD600 = 1; rRNA inh HTS RFP = -0.5
# CC(C)CC#Cc1ccc([C@H]2[C@@H](CO)N3C(=O)CN(S(C)(=O)=O)C[C@H]23)cc1 as listed: rRNA inh HTS = 5; rRNA inh HTS OD600 = 7; rRNA inh HTS RFP = -2.4

# More structures
SMILES,rRNA inh HTS,rRNA inh HTS OD600,rRNA inh HTS RFP
COCC#Cc1ccc([C@H]2[C@@H](CO)N3CCCCN(S(=O)(=O)c4cccc(OC)c4)C[C@H]23)cc1,3,-5,3.2
COc1ccc2c3c([nH]c2c1)[C@H](CO)N(Cc1ccccc1F)CC31CN(CC2CC2)C1,-3,-6,0.7
COc1cccc(CN2CC3(CCN(C(C)=O)CC3)c3c(n(C)c4cc(OC)ccc34)[C@@H]2CO)c1,6,-4,0.7
C[C@H](CO)N1C[C@H](C)[C@@H](CN(C)C(=O)C2CC2)Oc2ncc(/C=C/c3ccccc3)cc2C1=O,-3,2,-1.0
CO[C@H]1CN(C)C(=O)c2cc(NC(C)=O)ccc2OC[C@H](C)N(CC2CCCCC2)C[C@H]1C,1,1,-2.3
CO[C@@H]1CN(C)C(=O)c2ccc(NC(C)=O)cc2OC[C@@H](C)N(C(=O)c2ccccc2)C[C@H]1C,1,2,-1.6
CC(=O)N(C)C[C@H]1Oc2ccc(N)cc2CC(=O)N(C)C[C@H]1C,1,1,1.1
C[C@H](CO)N1C[C@H](C)[C@H](CN(C)CC2CCCCC2)Oc2ccc(NC(=O)CCCCCC(=O)Nc3ccccc3N)cc2C1=O,4,1,2.3
CCCC#Cc1ccc2c(c1)O[C@H](CN(C)S(=O)(=O)c1cccc(OC)c1)[C@H](C)CN([C@@H](C)CO)S2(=O)=O,3,1,-0.2
COCC(=O)NC[C@H]1N[C@H](CO)[C@@H]1c1ccc(C2=CCCC2)cc1,3,20,2.1
CCC(=O)N1[C@H](CO)[C@H](c2ccc(C3=CCCC3)cc2)[C@@H]1CNC1CCCCC1,3,11,0.5
C/C=C/c1ccc2c(c1)[C@@H]1[C@@H](CCN1C(=O)Cc1ccncc1)[C@@H](CO)N2C,2,28,-3.2
C[C@@H]1CCCCO[C@@H](CN(C)CC2CC2)[C@H](C)CN([C@@H](C)CO)C(=O)c2cc(NC(=O)C3CCCCC3)ccc2O1,6,13,-3.8
C[C@H](CO)N1C[C@H](C)[C@@H](CN(C)C(=O)N[C@H](C)c2ccccc2)OCc2ccccc2-c2ccccc2C1=O,2,4,-5.6
COc1ccc([C@H]2CC=CC[C@@H](C)Oc3ccccc3C(=O)N(C)[C@H](C)C(=O)N2)c(OC)c1 (mixture of isomers),-2,5,-2.1

# Reprinted at random: 3 entries already listed, in no set order.
SMILES,rRNA inh HTS,rRNA inh HTS OD600,rRNA inh HTS RFP
C[C@@H]1CCCCO[C@@H](CN(C)C(=O)Nc2ccccc2)[C@H](C)CN([C@H](C)CO)C(=O)c2cc(N(C)C)ccc2O1,-4,-6,-0.3
COCC(=O)N1[C@@H](CO)[C@@H](c2ccccc2)C12CN(Cc1cccc(OC)c1)C2,3,5,-0.4
O=C1N[C@@H](Cc2ccccc2)COCc2cnnn2CC[C@@H]1Cc1cccc(F)c1,1,0,-5.5

# (next part)
SMILES,rRNA inh HTS,rRNA inh HTS OD600,rRNA inh HTS RFP
Cc1cccc(-c2ccc([C@@H]3[C@@H](CO)N4CCCCN(S(=O)(=O)c5ccccc5F)C[C@@H]34)cc2)c1,3,7,1.7
CCNC(=O)[C@H]1[C@H](CO)[C@H]2Cn3c(ccc(-c4ccc(F)cc4)c3=O)[C@H]2N1C,1,15,4.5
C[C@@H]1CN([C@@H](C)CO)S(=O)(=O)c2ccc(-c3ccccc3)cc2O[C@H]1CN(C)Cc1ccccc1,6,9,-3.9
C[C@H](CO)N1C[C@H](C)[C@@H](CN(C)Cc2ccncc2)Oc2c(NC(=O)NC3CCCCC3)cccc2C1=O,-4,-15,-2.7
C[C@@H]1CCCCO[C@H](CN(C)Cc2ccc(C(=O)Nc3ccccc3N)cc2)[C@@H](C)CN([C@@H](C)CO)C(=O)c2cc(N(C)C)ccc2O1,-3,4,-2.9
CO[C@@H]1CN(C)C(=O)c2ccc(NC(=O)NC(C)C)cc2OC[C@H](C)N(Cc2cncnc2)C[C@@H]1C,1,4,-0.7
Cc1ccc(-c2ccc3c(c2)O[C@H](CN(C)Cc2cncnc2)[C@H](C)CN([C@H](C)CO)S3(=O)=O)cc1,0,-6,9.3
COc1ccc2c3c([nH]c2c1)[C@@H](CO)N(C(=O)c1ccc(F)cc1)CC31CN(C(=O)Nc2ccc(F)cc2)C1,-6,1,1.2
O=C(Nc1cc(F)ccc1F)N1CC(=O)N2[C@H](CO)[C@H](c3ccc(C#CC4CCCC4)cc3)[C@H]2C1,-20,-43,25
COCC#Cc1ccc([C@@H]2[C@H](CO)N3C(=O)CN(C(=O)Nc4cc(F)ccc4F)C[C@@H]23)cc1,-1,-5,-1.9
COc1ccc2c3c([nH]c2c1)[C@H](CO)N(Cc1cccnc1)CC31CN(C(=O)c2cccnc2)C1,0,0,-1.1
C[C@H]1CN([C@@H](C)CO)C(=O)c2cc(C#CC3CC3)cnc2O[C@@H]1CN(C)C(=O)c1ccncc1,7,13,-0.5
COCC(=O)Nc1ccc2c(c1)OC[C@@H](C)N(Cc1cncnc1)C[C@@H](C)[C@H](OC)CN(C)C2=O,1,0,-6.5
C[C@@H]1CN([C@H](C)CO)C(=O)c2ccccc2-c2ccccc2CO[C@@H]1CN(C)C(=O)Oc1ccccc1,-4,14,-5.0
CC(C)NC(=O)N(C)C[C@H]1Oc2ccc(N(C)C)cc2C(=O)N(C)C[C@H]1C,0,13,0.7
O=C(O)C[C@@H]1C[C@@H]2c3cc(NC(=O)Nc4ccc(C(F)(F)F)cc4)ccc3O[C@@H]2[C@@H](CO)O1,3,8,1.3
Cc1ccc(S(=O)(=O)N(C)C[C@H]2Oc3ccc(NS(=O)(=O)c4cn(C)cn4)cc3C(=O)N([C@@H](C)CO)C[C@@H]2C)cc1,-1,2,-3.0
C[C@H]1CN([C@@H](C)CO)C(=O)CCCn2cc(nn2)CO[C@H]1CN(C)C(=O)c1ccc(N2CCN(C)CC2)cc1,3,2,-0.5
CCCNC(=O)Nc1ccc2c(c1)C(=O)N(C)C[C@H](OC)[C@@H](C)CN(CCC(F)(F)F)[C@H](C)CO2,-3,-8,1.7
C[C@@H]1CN([C@H](C)CO)S(=O)(=O)c2ccc(-c3ccc(F)cc3)cc2O[C@H]1CN(C)C(=O)C1CC1,0,-17,-4.3
C/C=C/c1cccc(-c2nc(C(=O)NCCN3CCCCC3)cc3c2[C@H](CCO)N([S@@](=O)C(C)(C)C)C3)c1,4,10,2.9
Cc1cccc(-c2ccc([C@@H]3[C@@H](CO)N4C(=O)CN(C(=O)c5cnccn5)C[C@@H]34)cc2)c1,3,-2,0.4
C[C@H](CO)N1C[C@H](C)[C@H](CN(C)C(=O)NC2CCCCC2)Oc2c(NC(=O)CCCCCC(=O)Nc3ccccc3N)cccc2C1=O,1,1,-1.3
C[C@H](CO)N1C[C@H](C)[C@H](CN(C)S(=O)(=O)c2ccc(F)cc2)Oc2ncc(C#Cc3ccc(F)cc3)cc2C1=O,5,-2,1.2
CNC[C@@H]1Oc2c(NC(=O)NC(C)C)cccc2C(=O)N(C)C[C@H]1C,2,3,2.4
Cc1noc(C)c1NC(=O)Nc1ccc2c(c1)C(=O)N([C@@H](C)CO)C[C@@H](C)[C@@H](CN(C)S(=O)(=O)c1ccccc1)O2,3,3,-0.6
CCC(=O)N1[C@H](CN(C)C(C)=O)[C@H](c2ccc(-c3ccc(F)cc3)cc2)[C@@H]1CO,-2,2,1.6
CC(=O)N1[C@@H]2CN(CC(F)(F)F)C[C@H]1C2c1ccc(Br)cc1 (some centres undefined),-8,-23,0.8
CO[C@H]1CN(C)C(=O)c2cc(NC(=O)NC3CCCC3)ccc2OC[C@H](C)N(CC2CC2)C[C@H]1C,3,6,-0.8
C[C@@H]1CC(=O)N[C@@H](c2ccccc2)C/C=C\C[C@H](c2ccccc2)NC1=O,1,4,-3.7

# Part of the list above in order of SMILES length, ascending:
SMILES,rRNA inh HTS,rRNA inh HTS OD600,rRNA inh HTS RFP
CCC(=O)N1[C@H](CN(C)C(C)=O)[C@H](c2ccc(-c3ccc(F)cc3)cc2)[C@@H]1CO,-2,2,1.6
C[C@@H]1CN([C@H](C)CO)S(=O)(=O)c2ccc(-c3ccc(F)cc3)cc2O[C@H]1CN(C)C(=O)C1CC1,0,-17,-4.3
C[C@H]1CN([C@@H](C)CO)C(=O)CCCn2cc(nn2)CO[C@H]1CN(C)C(=O)c1ccc(N2CCN(C)CC2)cc1,3,2,-0.5

# Additional structures follow.
SMILES,rRNA inh HTS,rRNA inh HTS OD600,rRNA inh HTS RFP
COc1ccc2c3c(n(C)c2c1)[C@@H](CO)N(C(=O)Nc1ccc(F)cc1)CC31CN(S(=O)(=O)c2cccc(F)c2)C1,-1,8,-0.4
CC1C=NC(S(=O)(=O)N2CC[C@@H]3[C@H]2c2cc(-c4ccc(F)cc4)ccc2N(C)[C@H]3CO)=N1 (some centres undefined),-23,-42,24
C[C@@H]1CN([C@@H](C)CO)C(=O)c2cc(NS(=O)(=O)c3ccccc3)ccc2O[C@H]1CN(C)S(=O)(=O)c1ccc(Cl)cc1,-4,-3,-0.7
COc1ccc(S(=O)(=O)N(C)C[C@@H]2Oc3ccc(N(C)C)cc3C(=O)N([C@H](C)CO)C[C@H]2C)cc1,-3,-1,-1.9
C[C@H]1CN([C@@H](C)CO)C(=O)Cc2cc(NC(=O)Cc3cn(C)c4ccccc34)ccc2O[C@H]1CN(C)S(=O)(=O)c1ccc(Cl)cc1,2,-2,0.4
